# Compound activity as filed in PubChem.
# gsp antagonist – antagonists of gsp mutant (McCune-Albright syndrome). Potency, µM (titrated, usually from 76.9 µM), inactives show top-dose activity change, negative = inhibition, usual class: inhibitors. AID 624288. gsp-mutant cells, cAMP HTRF, 30 min; control for the full effect not named in the record. actives 0.4% (n = 340,000); active = falling curve of any shape with a large fitted effect; inconclusive = falling curve, mostly with a smaller effect; inactive = flat or rising curve; cell line not stated here;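 note: intracellular cAMP measured with PDE inhibitor Ro 20-1724 present during compound exposure; potency is the fitted concentration of half-maximal effect; % is set by controls: 0 for no effect and ±100 for the full control effect; nearly all actives have a fitted effect of over 65% in size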
#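 HTRF cAMP read-out (cAMP-d2 plus anti-cAMP antibody-K in lysis buffer, 30 min RT). Before lysis, cells are exposed to compounds with […] for 30 min at 37C in DPBS containing Ca/Mg, BSA and Tween 20.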
# CtBP-E1A inh – inhibitors of CtBP/E1A interaction; AlphaScreen GST-E1A/His-CtBP binding, 1536-well; stronger effect = lower value; control for the full effect not named in the record; activity change, % (no concentration beside the values); actives 0.49% (n = 340,000); in the data active means activity change below about -65%; inconclusive means about -30% to -65%; inactive means above about -30%; note: % is set by controls: 0 for no effect and ±100 for the full control effect; compound concentration not given in the record
#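 AlphaScreen with 125 nM GST-E1A and 125 nM His-CtBP (5X stocks) in Tris pH 8.0, 300 mM NaCl, BSA, Tween 20, TCEP. Compounds preincubated 2 h at 37 deg C, then glutathione donor/nickel acceptor beads added for 1 h at 37 deg C in dark.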
# Six1-Eya2 inh – Six1/Eya2 interaction inhibition. AlphaScreen GST-Six1/His-Eya2 binding, biochemical; stronger effect = lower value; control for the full effect not named in the record. activity change, % (test concentration not listed). actives 0.56% (n = 360,000); in the data active = activity change below about -65%; inconclusive = about -30% to -65%; inactive = above about -30%; note: % is set by controls: 0 for no effect and ±100 for the full control effect; compound concentration not given in the record
# Target sequence (O00167 whole entry, looked up): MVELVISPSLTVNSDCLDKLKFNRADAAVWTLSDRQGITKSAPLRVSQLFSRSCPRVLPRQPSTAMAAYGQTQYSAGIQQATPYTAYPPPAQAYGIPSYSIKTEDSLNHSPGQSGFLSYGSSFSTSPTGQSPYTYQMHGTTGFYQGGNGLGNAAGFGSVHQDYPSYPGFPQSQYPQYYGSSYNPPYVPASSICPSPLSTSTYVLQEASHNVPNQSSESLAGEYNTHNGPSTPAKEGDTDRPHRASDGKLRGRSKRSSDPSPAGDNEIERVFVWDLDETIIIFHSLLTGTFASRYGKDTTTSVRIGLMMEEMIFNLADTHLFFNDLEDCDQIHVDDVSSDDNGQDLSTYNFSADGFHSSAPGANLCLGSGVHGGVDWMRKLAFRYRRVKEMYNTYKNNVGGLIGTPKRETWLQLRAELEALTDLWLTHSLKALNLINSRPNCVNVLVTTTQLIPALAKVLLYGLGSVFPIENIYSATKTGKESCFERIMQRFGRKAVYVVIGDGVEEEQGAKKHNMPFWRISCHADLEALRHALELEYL
# Target sequence (Q15475 whole entry, looked up): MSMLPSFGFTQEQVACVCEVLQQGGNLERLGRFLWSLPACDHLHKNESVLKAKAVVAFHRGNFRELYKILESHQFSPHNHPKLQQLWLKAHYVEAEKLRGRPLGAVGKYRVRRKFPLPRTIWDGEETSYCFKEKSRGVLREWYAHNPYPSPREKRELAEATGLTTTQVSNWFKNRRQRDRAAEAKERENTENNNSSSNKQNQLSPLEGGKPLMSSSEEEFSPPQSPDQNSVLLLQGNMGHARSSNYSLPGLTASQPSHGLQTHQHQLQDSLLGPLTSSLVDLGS
#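 Homogeneous AlphaScreen proximity assay pairing GST-Six1 with His-tagged Eya2 (added as 5X mix: 250 nM and 500 nM) in 50 mM Tris pH 8.0, 300 mM NaCl, 1 mM TCEP. Glutathione donor and nickel acceptor beads; 1 h, 37 °C, dark.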
# D2 potentiator – potentiates the human D2 dopamine receptor allosterically; DiscoveRx D2 beta-arrestin cells, luminescence, 90 min; 100% = 57 uM dopamine signal; P14416; actives 0.23% (n = 360,000); AID 624464; potentiation, % (concentration not given with the values); active = potentiation of 50% or more; inconclusive = 30% to 50%; inactive = 30% or less;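 note: compound concentration not given in the record; tested on top of an EC20 dose of dopamine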
#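 PathHunter D2 cells, attached overnight at 37 deg C, received compound in DMSO plus dopamine at EC20 (50 nM final) for 90 min at 37 deg C. Beta-arrestin recruitment was read as luminescence after 1 h with detection reagent at ambient temperature.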
# gsp agonist – gsp mutant agonism | gsp mutant cells, cAMP HTRF, 30 min; control for the full effect not named in the record | Potency, µM (titrated, usually from 76.9 µM), without a hit: at the highest dose activation (cAMP increase), usual class: activators | actives 0.13% (n = 340,000); active = well fitted activation curve with a large enough effect; inconclusive = small, poorly fitted or top-dose-only effect, or another doubt; inactive = no such curve, though single readings can be large or run the other way; cell line not stated here;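 note: phosphodiesterase inhibitor Ro 20-1724 added with compounds to block cAMP breakdown; potency is the fitted concentration of half-maximal effect; nearly all actives have a fitted effect of over 60% in size; about a fifth of the inactives were tested at one dose only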
#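 Cells stably selected in G418 were plated at 2000/well, grown 16-24 hr, then given compounds in DMSO with the PDE inhibitor […] (300 uM solution added) for 30 min at 37C; cAMP was read by HTRF.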
# D2 ag – agonists of human D2 dopamine receptor (beta-arrestin). P14416. DiscoveRx PathHunter D2 beta-arrestin, luminescence, 90 min; 100% = 57 uM dopamine signal. activation, % (no concentration beside the values). actives 0.084% (n = 360,000); in the data active = activation above about 40%; inconclusive = about 15% to 40%; inactive = below about 15%; note: compound concentration not given in the record; the text of the record calls up to 30% inactive
#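 Agonist mode: compounds alone added to overnight-plated D2 PathHunter cells for 90 min at 37 C, with 57 uM final dopamine (EC100) defining full response. Beta-arrestin recruitment detected by chemiluminescent reagent, read after 1 h at ambient temperature.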
# An asterisk follows results filed as active; ? = inconclusive; . = no result given; [ ] = dose if it differs, or a comment. This is a random part of the collection. About 1.4% of those tested had a hit in this group.
No.	compound	gsp agonist	Six1-Eya2 inh	gsp antagonist	D2 potentiator	CtBP-E1A inh	D2 ag
1	Cc1ccc(C(=O)c2ccccc2C(=O)OCC(=O)NC(=O)NC(C)(C)C)cc1	-18%	-1	-12%	-1	8	-1.3
2	O=C1OCCC1Sc1nnc(-c2cccs2)n1Cc1ccccc1 (stereo not drawn)	0%	-2	?	-8	-4	-0.2
3	CCCn1c(N)c(N(CCOC)C(=O)c2cc3c(s2)CCC(CC)C3)c(=O)[nH]c1=O (stereo not drawn)	7%[15.4 µM]	-8	-2%	-10	2	2.1
4	Clc1ccc(-c2ccn[nH]2)cc1	16%	9	8%	-14	-1	-1.6
5	O=C(N/N=C/c1cccnc1)c1cc(O)c(O)c(O)c1	-25%	0	-6%	-1	-26	11
6	COc1ccc(N=C2NC(=O)C(CO)(CO)S2)cc1	-1%	14	2%	3	.	-1.7
7	COc1ccc(OS(=O)(=O)c2ccc(N3C(=O)CCC3=O)cc2)cc1	13%[15.4 µM]	10	2%	3	7	-4.8
8	Cc1nc(-c2ccc(Cl)cc2)sc1C1(C)CC(c2ccc(F)cc2)=NO1 (stereo not drawn)	.	8	0%	-8	6	-3.6
9	O=C(O)CC(CC(=O)NCC(O)c1ccccc1)c1ccccc1 (stereo not drawn)	27%	3	2%	-11	.	1.0
10	C=CCNc1nc(C)nc(OC)n1	-29%	7	7%	3	6	-0.5
11	COc1cccc(CNC(=O)COC(=O)c2cccc(S(=O)(=O)N3CCCC3)c2)c1	7%[15.4 µM]	-3	0%	-17	2	-2.0
12	O=C(NC1CCSc2ccccc21)c1cc([N+](=O)[O-])ccc1N1CCOCC1 (stereo not drawn)	-26%	-10	8%	-13	0	-6.6
13	CCCCNc1cccc2c1S(=O)(=O)N(CCCC)CC(COCc1ccccc1)O2 (stereo not drawn)	.	1	0%	.	3	-4.4
14	CCOc1ccc(/C=N/NC(=O)C(C)Sc2ccccn2)cc1OCC (stereo not drawn)	10%	?	-5%	2	?	3.8
15	COc1ccc(/C=N/NC(=O)c2cc3c(ccc4ccccc43)o2)cc1OC	10%	-15	-3%	27	-15	13
16	CCOC(=O)COc1nc(-c2ccc(C)cc2)cc(-c2ccco2)c1C#N	21%	8	-15%	-13	.	-1.8
17	N#CC[C@H](Cc1ccccc1)N1CC[C@@H](O)CCC1=O	17%	-8	12%	-8	4	-6.5
18	CC(C)c1nc2oc3c(N(C)CCO)ncnc3c2c2c1CCC2	-11%[15.4 µM]	-16	21%	-1	-15	-2.7
19	CCc1ccc(C2CC(c3ccc(Cl)cc3)=NNC2=O)cc1 (stereo not drawn)	-1%	2	-23%	?	3	-1.1
20	O=C(N=C1SC2CS(=O)(=O)CC2N1c1ccccc1)C1CCCCC1 (stereo not drawn)	8%	5	3%	0	3	2.3

# Single entries from above.
# In Six1-Eya2 inh, CC(C)c1nc2oc3c(N(C)CCO)ncnc3c2c2c1CCC2 reads -16
# In D2 potentiator, O=C(NC1CCSc2ccccc21)c1cc([N+](=O)[O-])ccc1N1CCOCC1 (stereo not drawn) reads -13

# Continuation.
No.	compound	gsp agonist	Six1-Eya2 inh	gsp antagonist	D2 potentiator	CtBP-E1A inh	D2 ag
21	CCC(C)(C)n1nnnc1C(C(C)C)N1CCSCC1 (stereo not drawn)	-24%	15	-19%	8	0	1.1
22	CCCCn1cnc2c(c(-c3ccccc3)c(-c3ccccc3)n2Cc2ccco2)c1=N	6%[15.4 µM]	2	5%	-6	1	-8.9
23	CCCc1c(C(=O)N/N=C/c2ccc(C)o2)nnn1-c1nonc1N	-4%	11	.	-1	-4	4.6
24	CCC(=O)NNc1cccc(Cl)n1	18%	5	13%	-2	1	-0.8
25	CC1CCCC(C)N1CCNC(=O)C1CCN(S(=O)(=O)N2CCCCC2)CC1 (stereo not drawn)	-35%[inhibitor]	8	8%	-9	7	-2.1
26	COc1ccc(C(C)=O)cc1COC(=O)c1ccc(N)c([N+](=O)[O-])c1	-3%[15.4 µM]	-14	1%	-9	0	-6.8
27	Cc1cccc(N2C(=O)CSC2c2cccnc2)c1 (stereo not drawn)	-31%[inhibitor]	6	1%	-8	3	-0.2
28	Cc1ccc(NC(=O)CN(C)C(=O)COc2cccc3ccc(C)nc23)cc1	-22%	0	3%	-5	3	-6.4
29	CC(C)CN1CCC(=O)N([C@H](CSc2ccc(Br)cc2)c2ccccc2)CC1	.	12	2%	-14	4	-0.9
30	Cc1nc(C(C)(C)O)n(-c2ccccc2)n1	-1%	5	15%	-3	2	-1.3
31	O=S(=O)(NCCS(=O)(=O)N1CCN(c2ccc(F)cc2)CC1)c1ccc(F)cc1	-30%	1	.	-10	-6	-0.8
32	Cc1cccc(N2C(=O)/C(=C/c3ccccn3)SC2=S)c1	-2%	0	-5%	-20	.	-5.3
33	CC(C)(C)NC(=O)C(c1ccc(O)cc1)N(Cc1ccc2c(c1)OCO2)C(=O)CCl (stereo not drawn)	-19%	-1	.	-12	3	-3.8
34	CC(Oc1ccc(Cl)cc1Cl)c1nc(-c2ccc(NC(=O)c3ccco3)cc2)no1 (stereo not drawn)	11%	-2	-2%	6	1	-1.1
35	O=C(O)CCCn1ccc2cc(S(=O)(=O)N3CCCC3)ccc21	27%	1	6%	-3	6	1.1
36	Cc1ccnc(N2CCC(C(=O)Nc3ccc4c(c3)CCC4)CC2)n1	0%	2	-1%	-6	-3	1.1
37	CCCn1nnnc1NC(=O)c1ccc(C)cc1Cl	10%	3	9%	-4	0	-1.4
38	O=C(COC(=O)c1cccnc1Cl)Nc1cccc(S(=O)(=O)N2CCOCC2)c1	16%	-2	-2%	2	7	-1.5
39	COc1ccc(C(=O)COC(=O)CNC(=O)c2cc(OC)cc(OC)c2)cc1	14%	12	-3%	-8	.	1.1
40	O=c1cc(C(F)(F)F)nc(-n2[nH]c3c(c2=O)CCCC3)[nH]1	-33%[inhibitor]	-85*	-11%	-4	-88*	-1.0
41	COc1ccc(/C=C/C2=CCN(Cc3ccc(OC)cc3)CC2)cc1	5%	-1	4%	-22	-6	-0.2
42	NC(=O)c1ccccc1NS(=O)(=O)c1cccs1	-38%[inhibitor]	10	-9%	3	-5	-4.2
43	COC(=O)c1c(NC(=O)c2ccc(N(C)S(=O)(=O)c3ccc(C)cc3)cc2)sc2c1CCCC2	4%[15.4 µM]	7	3%	-8	0	-6.5
44	CCc1ccc2nc3nc(C)cc(C)c3c(N)c2c1	-1%	?	4%	-12	11	-1.4
45	O=C1CCCCCN1C(=O)c1ccccc1	-34%	5	7%	1	1	-1.0
46	Cc1ccc(CNC(=O)c2c(-c3ccccc3Cl)noc2C)cc1	1%	11	-8%	-7	.	-0.9
47	CCCOc1ccc(-c2c(C(=O)N/N=C/c3ccc(C)cc3)nnn2-c2nonc2N)cc1	-18%	-12	?	1	-2	-4.4
48	Cc1ccccc1N/N=C/c1ccc(C#N)cc1	3%	-9	6%	-4	2	-1.2
49	COc1ccc(C(=O)NCC(=O)NCC(c2ccco2)N(C)C)cc1OC (stereo not drawn)	-15%	-1	7%	-15	-14	-3.2
50	O=C(CSc1nnc(NC(=O)c2ccccc2F)s1)NCc1ccc(F)cc1	0%	3	-2%	9	7	0.9
51	CC1(C(=O)N2CCN(c3ccc([N+](=O)[O-])cc3)CC2)CC1(Cl)Cl (stereo not drawn)	-15%	-5	?	2	.	2.5
52	Cn1c(=O)c2sccc2n2c(CCCC(=O)NCCc3ccccc3)nnc12	?	-1	3%	-1	.	-1.0
53	Cc1[nH]c2ccccc2c1C(c1ccncc1)N1CCN(c2ccccn2)CC1 (stereo not drawn)	13%[15.4 µM]	-25	7%	3	-13	-0.4
54	O=P(c1ccccc1)(c1ccccc1)N(c1ccccc1)c1ccccc1	-1%	4	4%	-11	6	0.2
55	CN(C)CCNC(=O)C1CCN(S(=O)(=O)c2ccc3ccccc3c2)CC1	10%[15.4 µM]	-4	16%	-4	-3	-2.7
56	O=C(CCSc1nc(-c2ccco2)cc(C(F)(F)F)n1)NCCc1ccccc1	-7%	0	-10%	-13	-4	-1.9
57	COc1ccc(C2(C)CC(C)(C)Nc3ccccc32)cc1 (stereo not drawn)	-37%[inhibitor]	?	-16%	-3	-28	-3.0
58	COc1ccc(/C=C/C(=O)N2CCN(C)CC2)cc1S(=O)(=O)N1CCCCC1	-6%	-3	1%	-6	.	-6.4
59	Cc1cc(N)n(-c2ccc(C)c(C)c2)n1	-1%	-2	-6%	-6	-3	-2.3
60	O=C(Cc1ccccc1)Nc1ccc(Cl)cn1	-2%[15.4 µM]	19	10%	-4	-1	-1.3
61	O=C(NNC(=O)C1CCC1)c1cccc(Cl)c1	-20%	2	10%	-1	8	-2.0
62	CC(C)C(=O)Nc1ccc(Oc2ccc3c(c2)C(=O)NC3=O)cc1	26%[15.4 µM]	7	-11%	2	2	2.9
63	Cc1ccc(-c2csc(N)n2)s1	?	-9	-12%	-10	-1	-4.4
64	CCCCNC(=O)C1(C)CCCCN1C(=O)c1oc2ccccc2c1C (stereo not drawn)	.	2	.	-6	8	-5.2
65	O=C(CSCc1ccc(Cl)cc1Cl)Nc1ccc(O)cc1C(=O)O	-14%	1	-17%	59*	.	12
66	Cn1c(SCC(=O)Nc2ccccc2)nnc1C(F)(F)F	11%	1	2%	-8	.	4.9
67	Cc1cc(C)c(S(=O)(=O)N2CCOC2CNC(=O)C(=O)NCc2ccco2)c(C)c1 (stereo not drawn)	?	1	7%	-5	2	-2.5
68	O=C(CCN1C(=O)c2ccccc2C1=O)C1=NN[C@@H]2C(=O)N(c3cccc(Cl)c3)C(=O)[C@H]12	-54%[inhibitor]	-1	2%	-7	1	1.9
69	COc1cccc(OC)c1OC(=O)c1ccccc1	-11%	12	-2%	-11	7	-4.5
70	CC(=O)Nc1ccc(NC(=O)Oc2ccccc2)cc1	2%	4	-7%	-3	-17	0.6
71	Clc1nccnc1-c1ccccc1	-44%[inhibitor]	10	14%	-9	-2	-1.5
72	CC(=O)Nc1ccc(NC(=O)c2ccc(Cn3cc(Cl)cn3)cc2)cc1	-34%[inhibitor]	-3	2%	-4	9	-1.6
73	Cc1cccc(N2CCN(C(=O)C3CCCN(S(=O)(=O)c4cnc[nH]4)C3)CC2C)c1 (stereo not drawn)	15%	-1	?	4	1	1.1
74	CCc1ccc(Nc2nnc(SCC(=O)Nc3cccnc3Cl)s2)cc1	1%	2	-17%	-13	-2	-3.2
75	COc1ccc(/C=C/C(=O)NCC(=O)N/N=C/c2cc(Br)ccc2OC)cc1	-34%[inhibitor]	-3	7%	-19	7	2.0
76	O=C(NCc1ccccc1Cl)C(=O)NCC1OCCCN1S(=O)(=O)c1cccs1 (stereo not drawn)	7%[15.4 µM]	9	3%	4	2	-2.3
77	Cc1cc(C)n2nc(CNS(=O)(=O)c3c(F)c(F)c(F)c(F)c3F)nc2n1	-2%	7	6%	-2	.	1.2
